Screens: PubChem BioAssay, several laboratories
Mtb betalactam – beta-lactam sensitization of Mtb H37Rv, H37Rv | inhibition, % at 25 µM | hit rate 0.27% among 330,000 | M. tuberculosis H37Rv growth with meropenem, percent inhibition; hits of this screen are not shown here;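 active = about 74% or more and at least 40 points above the plate without the antibiotic, then above 30% in a dose series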;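 also: growth measured after seven days incubation then overnight dye step; 0% = bacteria only wells and 100% = bacteria with antibiotic; twin plates without the antibiotic show which effects depend on it; some results filed as inactive read as strong as hits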
Arbovirus inh – antivirals against arbovirus infection, primary screen, cell-based, full library, 10K replicate subset | hit rate 0.37% among 200,000 | inhibition, % at 10 µM | arbovirus infection cell-based antiviral screen;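 active = inhibition from about 30%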;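 also: bluetongue infection of BSR cells; cell survival read as ATP light after 72 h; 0% = infected wells without compound and 100% = uninfected wells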
YopH PTP inh – YopH tyrosine phosphatase inhibitors, primary screen, biochemical, fluorescence Ex485/Em525. inhibition, %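 (about 10 µM by stock and volumes)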. hit rate 0.16% among 140,000. AID 898, 2007;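 active = inhibition of 50% or more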;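 also: controls were vehicle for no effect and minimum signal wells for full effect; inactives centre near -20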
Mtb growth – M. tuberculosis H37Rv growth inhibitors, H37Rv strain (AID 1626) | M. tuberculosis H37Rv growth inhibition; higher % means a stronger effect | one-dose inhibition, % at 10 µM; IC50 in µM for titrated hits | hit rate 0.95% among 220,000;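 active = confirmed in a dose series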;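 also: bacteria incubated seven days before Alamar blue readout; 0% = bacteria only wells and 100% = bacteria with antibiotic wells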
RecA splice inh – Mtb RecA intein splicing inhibitors, primary screen, biochemical, fluorescence, HTS; Protein RecA (Mycobacterium tuberculosis (strain ATCC 25618 / H37Rv)), P9WHJ3; cell-free RecA intein splicing; inhibition, %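 (about 9 µM by stock and volumes)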; hit rate 0.75% among 290,000; AID 2221, 2009; in the data active = inhibition above about 30%;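 also: 0% = vehicle wells and 100% = reference inhibitor control wells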
Target sequence (P9WHJ3 whole entry, looked up, canonical isoform): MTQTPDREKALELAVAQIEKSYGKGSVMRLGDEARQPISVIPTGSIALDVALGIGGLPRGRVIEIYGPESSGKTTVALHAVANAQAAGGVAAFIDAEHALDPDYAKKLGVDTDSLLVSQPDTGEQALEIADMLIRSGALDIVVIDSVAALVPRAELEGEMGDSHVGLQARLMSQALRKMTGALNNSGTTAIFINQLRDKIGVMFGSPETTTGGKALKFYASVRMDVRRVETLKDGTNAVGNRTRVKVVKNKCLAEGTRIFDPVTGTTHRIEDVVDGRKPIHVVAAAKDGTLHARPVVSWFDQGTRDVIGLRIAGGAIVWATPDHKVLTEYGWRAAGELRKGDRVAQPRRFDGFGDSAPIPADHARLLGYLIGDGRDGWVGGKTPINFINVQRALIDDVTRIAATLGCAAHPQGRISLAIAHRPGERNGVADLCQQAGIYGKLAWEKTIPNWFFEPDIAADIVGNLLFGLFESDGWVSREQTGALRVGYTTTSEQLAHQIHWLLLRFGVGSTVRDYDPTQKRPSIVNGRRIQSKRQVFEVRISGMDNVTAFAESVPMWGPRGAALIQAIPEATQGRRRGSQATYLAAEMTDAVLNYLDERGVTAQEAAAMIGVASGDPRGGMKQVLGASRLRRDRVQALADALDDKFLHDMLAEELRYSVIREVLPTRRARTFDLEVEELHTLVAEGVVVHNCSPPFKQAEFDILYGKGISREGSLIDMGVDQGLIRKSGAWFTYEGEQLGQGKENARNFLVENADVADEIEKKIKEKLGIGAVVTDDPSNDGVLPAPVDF
Arbovirus inh repeat – also measured in Arbovirus inh; calls as there; inhibition, %; measured here: 10K subset replicate screen; many hits read low in the repeat;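 first of two repeat runs on a subset; 0% = infected and 100% = uninfected wells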
Numbers without * were called inactive; . = no result given; & = joins results of further samples. These rows are one share of the data; count on the stated rates, not on these rows.

SMILES	Mtb betalactam	Arbovirus inh	YopH PTP inh	Mtb growth	RecA splice inh	others
Cc1ccc(Sc2c([N+](=O)[O-])c(=O)n(C)c3ccccc23)cc1	19	.	.	.	9.6
CCOC(=O)c1[nH]c(C)c(C(=O)Nc2ccc(C)c(F)c2)c1C	-8	-17	-33	5%	3.4
CC(C)Cn1c2ccccc2c2cc(C(=O)O)ccc21	2	8	-12	3%	-0.5
COc1ccccc1NC(=O)c1ccc2c(c1)N(CC(=O)NC(C)C)C(=O)C(C)(C)O2	10	.	.	.	-0.2
CN(CCNC(=O)C1CCCN(c2ncnc3c2nc2n3CCCCC2)C1)Cc1ccccc1 (stereo not given)	-7	.	.	.	0.0
C/C(Cn1nnc([N+](=O)[O-])n1)=N\NC(=O)c1ccccc1	56	-11	-25	1%	-7.0
CC(=O)c1c(C)n(CCc2ccc(Cl)cc2)c2ccc(O)cc12	9	.	.	.	-1.4
CN(Cc1ccccc1)C(=O)CN(Cc1ccccc1)S(C)(=O)=O	-7	-5	-8	4%	1.6
FC(F)(F)c1nc(SCc2ccccc2)n[nH]1	-10	.	.	.	1.2
O=C(COC(=O)/C=C/c1ccccc1)Nc1nnc(-c2ccccc2)o1	71	.	.	.	3.1

The final 3 compounds of the section before open the next one:
SMILES	Mtb betalactam	Arbovirus inh	YopH PTP inh	Mtb growth	RecA splice inh	others
CN(Cc1ccccc1)C(=O)CN(Cc1ccccc1)S(C)(=O)=O	-7	-5	-8	4%	1.6
FC(F)(F)c1nc(SCc2ccccc2)n[nH]1	-10	.	.	.	1.2
O=C(COC(=O)/C=C/c1ccccc1)Nc1nnc(-c2ccccc2)o1	71	.	.	.	3.1
COc1ccc(CN2C3CCCC2CC(NC(=O)Nc2cccc(C)c2)C3)cc1 (stereo not given)	-2	-33	12	-6%	.
CCOc1ccc(CC(=O)NNC(=S)Nc2ccccc2)cc1Br	-11	5	0	0%	2.1
Cc1ccc(S(=O)(=O)c2c(CO)c(-c3ccccc3)nn2C)cc1	-10	12	.	1%	1.9
O=C(c1ccc(S(=O)(=O)c2ccc(Cl)cc2)cc1)N1CCOCC1	4	-2	.	-7%	1.1
Cc1ccc(-c2c3c(=O)n(C)c(=O)n(C)c3cn2CCCN2CCOCC2)cc1	-2	0	-23	-8%	0.2
Cc1cc(C(=O)CSc2nncs2)c(C)n1-c1ccc2c(c1)OCO2	-5	1	-26	10%	1.8
CCC1SC(C)C/C(=N/NC(N)=O)C1C (stereo not given)	0	.	.	-4%	-2.7
O=C(O)c1c2c(nc3ccccc13)/C(=C/c1ccc(OC(F)F)cc1)CCC2	5	.	.	.	0.9
Cc1nnc(SCC(=O)NC(C)(C)C)n1NCc1ccc(N(C)C)cc1	5	.	.	.	0.1
N#C/C(=C/c1ccc(F)cc1)S(=O)(=O)c1ccccc1	-1	.	.	-2%	.

Random excerpt: 5 records from the list.
SMILES	Mtb betalactam	Arbovirus inh	YopH PTP inh	Mtb growth	RecA splice inh	others
Cc1cc(C(=O)CSc2nncs2)c(C)n1-c1ccc2c(c1)OCO2	-5	1	-26	10%	1.8
O=C(c1ccc(S(=O)(=O)c2ccc(Cl)cc2)cc1)N1CCOCC1	4	-2	.	-7%	1.1
O=C(O)c1c2c(nc3ccccc13)/C(=C/c1ccc(OC(F)F)cc1)CCC2	5	.	.	.	0.9
CCC1SC(C)C/C(=N/NC(N)=O)C1C (stereo not given)	0	.	.	-4%	-2.7
N#C/C(=C/c1ccc(F)cc1)S(=O)(=O)c1ccccc1	-1	.	.	-2%	.

Further entries follow.
SMILES	Mtb betalactam	Arbovirus inh	YopH PTP inh	Mtb growth	RecA splice inh	others
CCOC(=O)c1c(NC(=O)Cc2cccs2)sc(C(=O)NC2CCCCC2)c1C	2	-6	-22	7%	-3.1
CNC(=O)c1nc(C)n(-c2ccc([N+](=O)[O-])cc2)n1	5	13	.	0%	-0.9
CCOC(=O)C1CCN(C(=O)c2cc3c(OC)c(OC)c(OC)cc3[nH]2)CC1	-3	.	.	.	-1.0
O=C(CSc1ccccn1)Nc1ccccc1F	5	-6	5	5%	1.1
CCO[C@@H]1OC(C(=O)NCc2ccccc2)=C[C@H](c2ccc(C(F)(F)F)cc2)[C@H]1CCCO	30	-17	.	8%	3.0
Nn1c(SCC(=O)NC(=O)Nc2ccc3c(c2)OCCO3)nnc1C1CC1	-7	18	.	7%	1.2
O=C(NCc1ccoc1)c1ccc(NC(=O)c2ccccc2Cl)cc1	19	-21	22	8%	2.0
COc1cccc(NC(=O)C(=S)NC2CCCCC2)c1	-14	6	.	3%	11
O=C(NC1CCCCC1)C(Cc1ccccc1)N1C(=O)C2C3CCC(C3)C2C1=O (stereo not given)	3	-5	-26	-8%	.
CCOC(=O)c1cnn(-c2nc(-c3ccccc3F)cs2)c1C(F)(F)F	68	2	-20	-1%	1.5
O=C(COc1ccc(S(=O)(=O)N2CCCC2)cc1)NCc1ccco1	0	-2	-10	2%	-1.8
COC(=O)C(C)Sc1ccc2nnc(-c3ccc(F)cc3)n2n1 (stereo not given)	4	10	-3	-4%	-0.6
O=C(CCN1C(=O)COc2ccccc21)N1CCN(c2ccccn2)CC1	4	7	12	2%	-2.6
O=C(NCCCN1CCCC1=O)c1ccc2c(c1)OCO2	-13	4	-26	-3%	-5.3
O=C(N/N=C/c1ccccc1[N+](=O)[O-])c1ccc(COc2ccccc2-c2ccccc2)cc1	-3	9	-24	9%	4.0
CC(=O)Nc1ccc(NC(=S)NC(=O)/C=C/c2ccco2)cc1	10	.	.	.	0.3
CCCCc1c(O)nc(SCC(=O)c2ccccc2)[nH]c1=O	23	2	-35	-1%	4.3
Cc1cccc(-n2c(N)cc(=O)nc2SCC(=O)NC2CCCCC2)c1	0	6	-117	-1%	1.2
Cc1ccccc1OCc1nc2ccccc2c(=O)n1/N=C/c1ccco1	5	-1	7	-9%	1.7
CC(C)(C)c1cc[n+](C2=C([O-])c3ccccc3C(=O)/C2=N\S(=O)(=O)c2ccccc2)cc1	3	.	.	0%	50*
CCCCNC(=O)C1CCC(=O)N1CCc1ccccc1 (stereo not given)	-4	.	.	.	2.3
COc1cc2c(cc1OC)C(COc1cccc(C(F)(F)F)c1)NCC2 (stereo not given)	-6	.	.	.	-0.1
CCOC(=O)c1[nH]c2ccc(F)cc2c1NC(=O)CCN1CCSCC1	-11	-3	-4	-5%	.
O=C(O)c1cccc(NS(=O)(=O)c2ccc(C3CCCCC3)cc2)c1	3	7	.	-15%	0.2
O=C(N/N=C/c1c[nH]c2ccccc12)c1cccc(O)c1	1	.	.	.	-2.0
CC(C)CNC(=O)CN1C(=O)NC2(CCc3ccccc32)C1=O (stereo not given)	-7	.	.	.	-1.2
O=C(CN1C(=O)NC2(CCCCCC2)C1=O)c1ccc(F)cc1	3	.	.	.	-0.3
CCOC(=O)/C(=C\c1cccnc1)C(=O)c1cc(C(C)=O)c(Nc2ccccc2)s1	60	-36	-12	-7%	21
O=C1/C(=C/c2c[nH]c3ccccc23)CCC/C1=C\c1c[nH]c2ccccc12	15	-24	-27	32%	-3.8
Cc1c(NC(=O)COC(=O)C2CC3C=CC2C3)c(=O)n(-c2ccccc2)n1C (stereo not given)	-25	15	-26	3%	-1.4
CCSc1nnc(NC(=O)c2cccc3ccccc23)s1	8	17	-27	4%	-0.2
COc1cccc(Oc2nc(-c3ccncc3)nc3ccccc23)c1	91	.	.	1%	-5.6
Cc1cccc(N(C(=O)C(F)(F)F)C(C(=O)NC2CCCCC2)c2cccs2)c1 (stereo not given)	-10	10	-16	0%	2.2
CCc1ccccc1N(CC(=O)NCC1CCCO1)C(=O)CCC(=O)Nc1cc(C)on1 (stereo not given)	3	.	.	.	0.4
CC(C)n1c(NCc2ccccc2O)nc2ccccc21	2	.	.	.	2.4
COc1ccc(CCNC(=O)c2nnn(-c3cc(C)cc(C)c3)c2N)cc1OC	0	0	-3	-2%	-2.3
Cc1noc(C)c1COc1cccc(C(=O)Nc2cccnc2)c1	-17	-14	.	3%	2.0
CCCc1cc(C(=O)O)c2ccccc2n1	-12	-1	-27	4%	2.3
Cn1c(O)c(/C=N/c2ncccn2)c(=O)n(C)c1=O	.	0	-32	-10%	0.9
Nn1cc(-c2ccccc2)nc1SCC(=O)NC1CCS(=O)(=O)C1 (stereo not given)	0	1	-33	1%	6.8

3 compounds already listed, arranged by SMILES length, ascending:
SMILES	Mtb betalactam	Arbovirus inh	YopH PTP inh	Mtb growth	RecA splice inh	others
CC(C)n1c(NCc2ccccc2O)nc2ccccc21	2	.	.	.	2.4
CC(C)Cn1c2ccccc2c2cc(C(=O)O)ccc21	2	8	-12	3%	-0.5
O=C(O)c1cccc(NS(=O)(=O)c2ccc(C3CCCCC3)cc2)c1	3	7	.	-15%	0.2

Carrying on:
SMILES	Mtb betalactam	Arbovirus inh	YopH PTP inh	Mtb growth	RecA splice inh	others
CCCCc1nc(N2CCN(C(=O)c3ccco3)CC2)c(C#N)c2c1CCCC2	60	.	.	.	21
CCN1CC(CN(C)Cc2nc(-c3ccc(C(F)(F)F)cc3)oc2C)CC1=O (stereo not given)	1	3	.	1%	1.0
CCCSc1nnc(C(C)C)n1N	4	-5	-8	-4%	-3.7
CCOC(=O)N1CCN(C/C(Cl)=C/c2ccccc2)CC1	-5	.	.	.	0.4
O=C(CCC(=O)Nc1cccc(C(F)(F)F)c1)NCC1CCCO1 (stereo not given)	-2	.	.	.	-1.2
CC1=NN(c2ccccc2)C(=O)/C1=C/C=C/c1ccc(N(C)C)cc1	.	-17	.	18%	-0.1
Cc1[nH]c2ccccc2c1C(=O)NS(=O)(=O)Nc1ccc(Cl)cc1	-2	0	.	-3%	-0.6
COc1ccc(C(=O)N2CC3(CC(c4cccc([N+](=O)[O-])c4)=NO3)C[C@H]2C(=O)NCC(N)=O)cc1 (stereo not given in full)	-2	0	-20	-7%	-0.3
CSc1nsc(SC)c1NC(=O)OCCc1ccccn1	3	2	4	-2%	1.3
COc1ccc(N2CCN(c3n[nH]c(N)n3)CC2)cc1	-7	11	.	2%	-3.5
COc1c(C)cc(C(=O)C2CCCN(C(=O)CCCn3cncn3)C2)cc1C (stereo not given)	-9	.	.	6%	-0.1
CC(C)CCNC(=O)CNC(=S)N(Cc1ccccc1)Cc1cccnc1	-2	-6	1	0%	0.1
N#C/C(=C(/O)c1ccco1)c1nc2ccccc2s1	20&-2	-11	-38	-5%&7%	0.2&-3.6
COc1ccc(N(CC(=O)N2CCN(c3ccccc3F)CC2)S(=O)(=O)c2c(C)noc2C)cc1	1	.	.	.	-0.9
CC(=O)c1ccc(NC(=O)CSc2nc(C3CC3)nc3ccccc23)cc1	0	.	.	.	-5.4
Cc1nc([N+](=O)[O-])c(C(=O)OCc2ccccc2)n1C	-4	5	.	-3%	-0.1
Fc1ccccc1CN1CCC(Cc2ccccc2)CC1	-5	.	.	.	1.7
CCOC(=O)C1(Cc2cccc(Cl)c2)CCCN(C(=O)c2cc(CC)on2)C1 (stereo not given)	-3	.	.	.	3.0
CC(NC(=O)c1cc([N+](=O)[O-])cc([N+](=O)[O-])c1)C1CC2CCC1C2 (stereo not given)	100	.	.	.	6.4
O=C(Oc1ccc(Br)cc1)c1cncc(Br)c1	4	9	-42	-1%	9.8
O=C(Nc1ccc2nc3n(c(=O)c2c1)CCCC3)c1ccccc1[N+](=O)[O-]	2	2	-6	4%	-3.3
COC(=O)c1[nH]c2cc(OC)ccc2c1NC(=O)CCN1CCCC(C)(C)C1	-14	1	-22	-16%	-0.6
O=C(COc1ccccc1)Nc1c2c(nn1-c1ccccc1)CS(=O)C2 (stereo not given)	-4	.	.	.	1.5
O=C(Nc1ccccc1)Nc1nc(-c2ccc(F)cc2)cs1	36	3	-25	8%	-2.0
O=C1CCN(CCc2ccccc2)CCN1CCSc1ccc(Br)cc1	98	.	.	3%	0.7
Cc1ccc(F)cc1NC(=O)CN1CCN(c2ccccn2)CC1	-7	1	.	-1%	1.7
CCOC(=O)N1CCN(C(=O)CN(c2ccc3c(c2)OCO3)S(C)(=O)=O)CC1	6	-1	26	-11%	1.7
Cc1cccc(NS(=O)(=O)c2ccc3c(c2)CCC(=O)N3)c1	-6	.	.	.	-1.9
CCOc1ccc2nc(COC(=O)c3cccs3)c(C(=O)c3ccccc3)[n+]([O-])c2c1	-5	-7	-45	1%	-1.2
Cc1ccc(NC(=S)N(CCN(C)C)Cc2cccs2)cc1C	7	6	.	0%	-1.8
COc1ccc(NC(=O)CS(=O)(=O)c2cn(CC(=O)N3CCCC3)c3ccccc23)c(OC)c1	-22	.	.	.	-2.0
Clc1ccc2nc(-c3ccccc3)cn2c1	-2	.	.	.	0.6
CC1CCN(c2c(NCC3CCC(C(=O)NCCC4=CCCCC4)CC3)c(=O)c2=O)CC1 (stereo not given)	28	.	.	6%	3.6
COc1ccc(C(=O)C2CCCN(C(=O)COc3ccc(C(C)=O)cc3)C2)cc1F (stereo not given)	6	6	.	1%	-0.3
COc1cc(S(=O)(=O)N2CCN(Cc3ccc4c(c3)OCO4)CC2)c(C)cc1C	-1	8	-23	-2%	13	Arbovirus inh repeat=10
